High-throughput results (PubChem BioAssay)
Vaccinia mCherry – inhibitors of vaccinia virus infection (mCherry reporter signal) | Vaccinia virus mCherry reporter infection, fluorescence; about a quarter of the inactives have no number | hit rate 0.63% among 310,000 | Potency, µM (top dose mostly 36.5 µM), for inactives: at the highest dose activity change, negative = inhibition, usual class: inhibitors; active = well fitted inhibition curve with a large enough effect; inconclusive = small, poorly fitted or top-dose-only effect; inactive = no such curve, though single readings can be large or run the other way; tested in A549 cells; note: nearly all actives have a fitted effect of over 35% in size; inactives centre near -10
Vaccinia Venus – vaccinia inhibition (Venus reporter) | hit rate 0.46% among 330,000 | Potency, µM (top dose mostly 36.5 µM), without a hit: at the highest dose activity change, negative = inhibition, hits mostly inhibitors | Vaccinia virus Venus reporter expression, fluorescence; active means well fitted inhibition curve with a large enough effect; inconclusive means small, poorly fitted or top-dose-only effect; inactive means no such curve, though single readings can be large or run the other way; tested in A549 cells; note: nearly all actives have a fitted effect of over 30% in size; inactives centre near -10
* marks the source's active call; other numbers are inactive results; & = joins results of further samples; [ ] = remark or other dose. % is set by controls: 0 for no effect and ±100 for the full control effect; potency is the fitted concentration of half-maximal effect.

Preview, 5 compounds:
Screening Cc1ccc(-c2nc3c(c(SCC(=O)Nc4cccc(C(=O)O)c4)n2)Cc2cccc(C)c2O3)cc1 returned Vaccinia mCherry -12%&-11% and Vaccinia Venus 1%&10%.
For CCCCn1nc(C(=O)Nc2nc3c(s2)CCCC3)c2ccccc2c1=O the results were Vaccinia mCherry -24% and Vaccinia Venus -11%.
Screening COCCNC(=O)c1ccc(CS(=O)(=O)c2ccccc2OC)o1 returned Vaccinia mCherry -18% and Vaccinia Venus -16%.
Screening NC(=S)NNC(=O)c1cccc(Cl)c1 returned Vaccinia mCherry -7% and Vaccinia Venus -5%.
`O=[N+]([O-])c1ccccc1/C=N/N1CCN(c2ccc(Cl)cc2)CC1` gave Vaccinia mCherry inactive and Vaccinia Venus -6%.

The whole of this part, from the start:
Screening Cc1ccc(-c2nc3c(c(SCC(=O)Nc4cccc(C(=O)O)c4)n2)Cc2cccc(C)c2O3)cc1 returned Vaccinia mCherry -12%&-11% and Vaccinia Venus 1%&10%.
For CCCCn1nc(C(=O)Nc2nc3c(s2)CCCC3)c2ccccc2c1=O the results were Vaccinia mCherry -24% and Vaccinia Venus -11%.
Screening COCCNC(=O)c1ccc(CS(=O)(=O)c2ccccc2OC)o1 returned Vaccinia mCherry -18% and Vaccinia Venus -16%.
Screening NC(=S)NNC(=O)c1cccc(Cl)c1 returned Vaccinia mCherry -7% and Vaccinia Venus -5%.
`O=[N+]([O-])c1ccccc1/C=N/N1CCN(c2ccc(Cl)cc2)CC1` gave Vaccinia mCherry inactive and Vaccinia Venus -6%.
Screening CCOC(=O)CC(NC(=O)Cn1nnc(-c2ccc(C(F)(F)F)cc2)n1)c1ccc(OC)cc1 (centres undefined) returned Vaccinia mCherry 1% and Vaccinia Venus -4%.
For CCOC(=O)c1ccccc1N=N/C(C(C)=O)=C(/C)O the results were Vaccinia mCherry -18% and Vaccinia Venus -7%.
`COP(=O)(Cc1ccc(C#N)o1)OC` gave Vaccinia mCherry inactive and Vaccinia Venus -14%.
`Cc1cccc(NC(=O)c2sc(Cl)nc2C)c1C` gave Vaccinia mCherry inconclusive and Vaccinia Venus inconclusive.
Screening Cc1ccc(NC(=O)c2ccccc2F)cc1S(=O)(=O)N1CCCCCC1 returned Vaccinia mCherry -29% and Vaccinia Venus -22%.
For CCCc1nn2c(=O)cc(COC(=O)c3ccccc3NC(=O)c3ccc(OCC)cc3)nc2s1 the results were Vaccinia mCherry -2% and Vaccinia Venus 4%.
CCCC1=NCCn2cccc21 was read as Vaccinia Venus -5%.
Screening Cc1ccc(-c2nnc(Nc3ccc(Cl)cc3)c3ccccc23)cc1S(=O)(=O)NCC1CCCO1 (centres undefined) returned Vaccinia mCherry 0% and Vaccinia Venus -27%.
`COc1cc(CN2CC3CC(C2)c2cccc(=O)n2C3)cc(OC)c1OC` (centres undefined) gave Vaccinia mCherry -8% and Vaccinia Venus -7%.
For Cc1c(NC(=O)c2ccc(S(=O)(=O)N3CCOCC3)cc2)c(=O)n(-c2ccccc2)n1C the results were Vaccinia mCherry -22% and Vaccinia Venus -7%.
COc1cccc(CN2CC(C(=O)NC3CCC3)CCC2=O)c1 (centres undefined) was read as Vaccinia mCherry -13% and Vaccinia Venus 2%.
For COc1ccc(-n2nnnc2CNC(=O)C(=O)c2c[nH]c3ccccc23)cc1 the results were Vaccinia mCherry -14% and Vaccinia Venus -5%.
`O=[N+]([O-])c1c(Nc2ccccn2)cc(Cl)c2nonc12` gave Vaccinia mCherry -25% and Vaccinia Venus -31%.
`C[C@H](CO)N1C[C@H](C)[C@@H](CN(C)S(=O)(=O)c2ccccc2)OCCCC[C@H](C)Oc2ccc(NC(=O)CCC(F)(F)F)cc2C1=O` gave Vaccinia mCherry 1% and Vaccinia Venus -9%.
Screening C/C(=N\NC(=O)c1cc(Br)ccc1O)c1cccc(NC(=O)c2ccccc2F)c1 returned Vaccinia mCherry -10% and Vaccinia Venus -7%.
`CS(=O)(=O)N1CCN(C(=O)COc2ccccc2)CC1` gave Vaccinia mCherry -3% and Vaccinia Venus 1%.
For Cc1cc(N/N=C/c2ccccc2[N+](=O)[O-])nc(-n2nc(C)cc2C)n1 the results were Vaccinia mCherry 10µM* and Vaccinia Venus inconclusive.
`Cc1nc(-c2ccccc2)sc1-c1ccc(SCC(=O)Nc2ccccc2)nn1` gave Vaccinia mCherry -22% and Vaccinia Venus -15%.
Cc1cc(Cl)ccc1NC(=S)N1CCN(Cc2ccc3c(c2)OCO3)CC1 was read as Vaccinia mCherry -3% and Vaccinia Venus -24%.
`C/C(=N\n1c(C)cc(C)c(C#N)c1=O)c1cccs1` gave Vaccinia mCherry -8% and Vaccinia Venus -8%.
For CSc1ccc(Cl)c(C(=O)NNC(=O)c2csc(N3CCOCC3)n2)c1 the results were Vaccinia mCherry -7% and Vaccinia Venus -12%.
Cc1nc2c(C)cccn2c(=O)c1NC(=O)COc1ccccc1 was read as Vaccinia mCherry inactive and Vaccinia Venus 0%.
For CC(=O)c1c(C)[nH]c(C(=O)NNC(=O)COc2ccc(Cl)cc2C)c1C the results were Vaccinia mCherry 0% and Vaccinia Venus -4%.
`Cc1ccc(SCc2nc(-c3ccc(C(=O)Nc4cc(C)ccc4C)cc3)oc2C)cc1` gave Vaccinia mCherry -15%[7.34 µM] and Vaccinia Venus -17%[7.34 µM].
For CCOC(=O)C1CCCN(C(=O)c2cn(CC)c3ccc(S(=O)(=O)N(C)C)cc3c2=O)C1 (centres undefined) the results were Vaccinia mCherry 5% and Vaccinia Venus 0%.
For CC(C)CC(NC(=O)c1ccc(Cl)cc1Cl)C(=O)O (centres undefined) the results were Vaccinia mCherry -11% and Vaccinia Venus -13%.
`CC(=O)N1CCc2nc3sc(C(=O)Nc4ccc(Cl)cc4F)c(N)c3c(C(F)(F)F)c2C1` gave Vaccinia mCherry -8% and Vaccinia Venus -1%.
`O=C(CNC(=O)c1ccc2c(c1)S(=O)(=O)N=C1CCCCCN12)Nc1ccc(F)c(F)c1` gave Vaccinia mCherry inactive and Vaccinia Venus -21%.
`CN(C)c1ccc(C(=O)N2CCC2(C)C(=O)O)cc1` (centres undefined) gave Vaccinia mCherry 40%[activator] and Vaccinia Venus -3%.
Screening Cc1ccc(NS(=O)(=O)c2cccc(C(=O)OCC(=O)NCc3ccco3)c2)cc1 returned Vaccinia Venus -11%.
For C/C(=N\NC(=O)c1ccc(CSc2nncn2C)cc1)c1ccc2ccccc2c1 the results were Vaccinia mCherry inactive and Vaccinia Venus -14%.
For Nc1[nH]c(C(=O)c2ccccc2)c(-c2ccc(Br)cc2)c1C(=O)c1cccs1 the results were Vaccinia mCherry -7% and Vaccinia Venus -4%.
For CC1(C)CC(=O)C2=C(C1)N(c1ccc(F)cc1)C(N)=C(C#N)C2c1cccs1 (centres undefined) the results were Vaccinia Venus -4%.
Cc1ccc(NC(=O)CCS(=O)(=O)c2cc3[nH]c(=O)c(=O)[nH]c3cc2C)cc1 was read as Vaccinia mCherry inactive and Vaccinia Venus 5%.
For COc1ccc(N(Cc2nnc3n2CCCCC3)C(=O)Nc2cccc(C)c2)cc1Cl the results were Vaccinia mCherry 3% and Vaccinia Venus 5%.
`CCn1cc(C(=O)NCc2ccccc2)c(=O)c2cc(F)c(N3CCN(C(=O)c4ccco4)CC3)cc21` gave Vaccinia Venus inconclusive.
Screening O=C(NCc1cccs1)C1CCC(CNS(=O)(=O)c2ccccc2)CC1 (centres undefined) returned Vaccinia mCherry -6% and Vaccinia Venus -8%.
Screening N#Cc1cc2c(nc1SCc1cccnc1)CCC2 returned Vaccinia Venus -17%.
`O=C(NC1CCCCC1)c1nc(-c2c(F)cccc2F)oc1-c1ccccc1` gave Vaccinia mCherry inactive and Vaccinia Venus -7%.
Clc1ccc(-c2nnc(SCc3nc(-c4ccccc4)no3)o2)cc1 was read as Vaccinia mCherry inconclusive and Vaccinia Venus inconclusive.
Screening COc1ccc2cc([C@@H](C)C(=O)O)ccc2c1 returned Vaccinia mCherry -13% and Vaccinia Venus -15%.
Screening COc1ccc2c(c1)OC(C)CN(CCNC(=O)c1csc(-c3cccs3)n1)C2 (centres undefined) returned Vaccinia mCherry -6% and Vaccinia Venus 14%.
For COc1ccc(-c2cn(-c3ccc(Br)cc3)c3[n+]2CCS3)cc1 the results were Vaccinia mCherry -10% and Vaccinia Venus -18%.
Cc1ccc(OCc2cc(C(=O)NCC(C)c3ccccc3)no2)cc1C (centres undefined) was read as Vaccinia mCherry 0% and Vaccinia Venus -15%.
`Cc1nc(C(=O)NNC(=O)c2cccc(Cl)c2)c(C(F)(F)F)o1` gave Vaccinia mCherry -2% and Vaccinia Venus -7%.
For Cc1cc(C)c(NC(=O)Nc2sc3nc4n(c(=O)c3c2C)CCC(C)CC4)c(C)c1 (centres undefined) the results were Vaccinia mCherry -18% and Vaccinia Venus -20%.
COCCCNC(=O)c1cccc2c(-c3cccc(C(N)=O)c3)coc12 was read as Vaccinia mCherry -13% and Vaccinia Venus -15%.
COc1ccc(NS(=O)(=O)c2ccc(-n3cccn3)cc2)cc1OC was read as Vaccinia mCherry -12% and Vaccinia Venus inconclusive.
`COCCNC(=O)c1ccccc1NS(=O)(=O)c1ccc(C)c([N+](=O)[O-])c1` gave Vaccinia mCherry -14% and Vaccinia Venus -7%.
CCOc1ccc(/C=C/c2nc(C#N)c(N3CCCCCC3)o2)cc1 was read as Vaccinia mCherry -12% and Vaccinia Venus -9%.
Screening CCOc1ccc(CCNC(=O)C2CCN(c3ncnc4c3nc3n4CCCCC3)CC2)cc1 returned Vaccinia mCherry -8% and Vaccinia Venus -10%.
O=C(Nc1ccc(Cl)cc1)c1cc(S(=O)(=O)NC2CCCCCC2)ccc1F was read as Vaccinia mCherry inconclusive and Vaccinia Venus inconclusive.
`O=C(Cn1c(=O)nc(-c2ccccc2)c2cc(Cl)ccc21)NCc1ccc(Cl)cc1` gave Vaccinia mCherry -6% and Vaccinia Venus -7%.
CC12CCC(C(N)C1=O)C2(C)C (centres undefined) was read as Vaccinia mCherry inactive and Vaccinia Venus -3%.
Cc1ccc(CCNC(=O)c2ccc3c(c2)N(Cc2ccccc2)C(=O)c2ccccc2S3=O)cc1 (centres undefined) was read as Vaccinia mCherry -25% and Vaccinia Venus -16%.

The final 2 entries of the part above come first, to join the parts.
CC12CCC(C(N)C1=O)C2(C)C (centres undefined) was read as Vaccinia mCherry inactive and Vaccinia Venus -3%.
Cc1ccc(CCNC(=O)c2ccc3c(c2)N(Cc2ccccc2)C(=O)c2ccccc2S3=O)cc1 (centres undefined) was read as Vaccinia mCherry -25% and Vaccinia Venus -16%.
CCOCCCNC(=O)C(c1ccc(C)cc1)N(Cc1cccs1)C(=O)c1ccccc1O (centres undefined) was read as Vaccinia mCherry -12% and Vaccinia Venus -19%.
`Cc1ccc(-c2nn(-c3ccccc3)cc2C2SCC(=O)N2Cc2ccccc2)o1` (centres undefined) gave Vaccinia mCherry -22% and Vaccinia Venus -7%.
`Cc1ccc2nc(NC(=O)CN3CCN(c4ccccn4)CC3)sc2c1` gave Vaccinia mCherry -13% and Vaccinia Venus -17%.
For O=C(Cn1c(=O)n(Cc2cccs2)c(=O)c2cccnc21)Nc1ccccc1F the results were Vaccinia mCherry -3% and Vaccinia Venus 4%.
`O=C(Nc1ccccc1Cl)c1sc2cccc(Cl)c2c1Cl` gave Vaccinia mCherry -20% and Vaccinia Venus -15%.
CC1CCN(C(=O)CCc2ccc(Oc3cc([N+](=O)[O-])cc([N+](=O)[O-])c3)cc2)CC1 was read as Vaccinia mCherry -30% and Vaccinia Venus -21%.
`COc1ccccc1OCc1nc2ccccc2s1` gave Vaccinia mCherry -7% and Vaccinia Venus -20%.
Screening COc1ccc(S(=O)(=O)N2CCN(Cc3ccc4c(c3)OCO4)CC2)cc1F returned Vaccinia mCherry -25% and Vaccinia Venus -21%.
Cc1cnc(NC(=O)CSc2nnc(-c3ccc(Cl)cc3Cl)n2N)s1 was read as Vaccinia Venus -22%.
COc1cc2c(cc1OC)C(C)N(C(=O)C1=NN(c3cccc(C)c3)C(=O)CC1)CC2 (centres undefined) was read as Vaccinia mCherry -15% and Vaccinia Venus -9%.
`CN(C(=O)Cn1c(=O)n(CCC(=O)NCc2ccc3c(c2)OCO3)c(=O)c2sccc21)c1ccccc1` gave Vaccinia mCherry -6% and Vaccinia Venus -12%.
Cc1ccc(NC(=O)c2cc(S(=O)(=O)N(C)C)ccc2N2CCCC2)cc1F was read as Vaccinia mCherry -9% and Vaccinia Venus -21%.
Screening COc1cc2c(cc1OC)[C@@H](NC(=O)COc1ccccc1)[C@H](OCc1ccccc1)C2 returned Vaccinia mCherry -13% and Vaccinia Venus -5%.
Screening CC(C)(C)OC(=O)N1CCC(c2c(C(=O)NCCN3CCC(Cc4ccccc4)CC3)cnn2-c2ccc(F)cc2)CC1 returned Vaccinia mCherry inconclusive and Vaccinia Venus inconclusive.
Screening CC(=O)Nc1ccc(SCC(=O)c2cc(C)n(-c3ccccc3F)c2C)cc1 returned Vaccinia mCherry -17% and Vaccinia Venus -12%.
COc1ccccc1NC(=O)C1=C(C)Nc2c(C(=O)Nc3cccc(C)c3)cnn2C1c1ccccc1Cl (centres undefined) was read as Vaccinia mCherry inactive and Vaccinia Venus -17%.
